Assay outcomes: PubChem, The Scripps Research Institute Molecular Screening Center
PREPL inh: inhibits the human prolyl oligopeptidase-like enzyme | Q4J6C6 | recombinant PREPL, fluorescence polarization activity-based probe | inhibition, % at 5.96 µM | 320,000 tested, 0.68% active | AID 2751; in the data active = inhibition above about 43%;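 also: 0% = enzyme with DMSO and 100% = wells lacking enzyme; many of its hits are not listed in these tables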
LYPLA2 counter: blocks human lysophospholipase 2, a PME1 counter-screen | recombinant LYPLA2, FP-Rh probe fluorescence polarization | inhibition, % at 5.9 µM | 320,000 tested, 0.38% active;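 active = inhibition above the screen-wide mean plus 3 SD, limit set per campaign, cut at about 26% in these data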;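 also: 0% = LYPLA2 with DMSO and 100% = wells lacking LYPLA2 enzyme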
Target sequence (O95372 whole entry, looked up): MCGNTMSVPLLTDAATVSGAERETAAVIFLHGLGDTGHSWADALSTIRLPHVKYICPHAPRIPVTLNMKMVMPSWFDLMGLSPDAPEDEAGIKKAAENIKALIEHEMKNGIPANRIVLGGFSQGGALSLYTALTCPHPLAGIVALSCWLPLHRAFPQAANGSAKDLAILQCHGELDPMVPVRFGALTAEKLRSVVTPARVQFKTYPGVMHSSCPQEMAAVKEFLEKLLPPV
PAFAH1B3 inh: PAFAH1B3 (human) inhibition; AID 492972; recombinant PAFAH1B3, FP-rhodamine probe, fluorescence polarization; Q15102; 340,000 tested, 0.28% active; inhibition, % at 3.39 µM;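 active = inhibition above the screen-wide average of all tested compounds plus 3 SD, cut at about 25% in these data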;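 also: 0% = enzyme with DMSO only and 100% = wells lacking PAFAH1B3 protein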
Target sequence (Q15102 whole entry, looked up): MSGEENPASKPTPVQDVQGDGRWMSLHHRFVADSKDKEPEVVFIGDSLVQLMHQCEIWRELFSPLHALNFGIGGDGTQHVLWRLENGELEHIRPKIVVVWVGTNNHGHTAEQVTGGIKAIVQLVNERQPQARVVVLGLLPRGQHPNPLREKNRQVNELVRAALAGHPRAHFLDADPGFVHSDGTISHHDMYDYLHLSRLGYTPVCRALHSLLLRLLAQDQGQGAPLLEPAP
PAFAH2 inh: PAFAH2 (human) inhibition; Q99487; 340,000 tested, 0.99% active; inhibition, % at 3.39 µM; recombinant PAFAH2, FP-rhodamine activity probe, fluorescence polarization;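 active = inhibition above the mean over all tested compounds plus 3 SD, cut at about 30% in these data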;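 also: inhibitors block probe labeling of enzyme so polarization drops; 0% = enzyme with DMSO and 100% = wells lacking PAFAH2 protein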
EBNA-1 inhibitor: blocks EBNA-1 binding to DNA. 300,000 tested, 0.34% active. inhibition, % at 14.8 µM. AID 1950. EBNA-1 DNA binding, fluorescence polarization; in the data active = inhibition above about 28%
LYPLA1 counter: blocks human lysophospholipase 1, a PME1 counter-screen; recombinant LYPLA1, FP-Rh probe fluorescence polarization; inhibition, % at 5.9 µM; 320,000 tested, 0.16% active; O75608;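 active = inhibition above the mean of all tested compounds plus 3 SD, set per campaign, cut at about 14% in these data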;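 also: inhibitors block serine hydrolase probe labeling of LYPLA1 so polarization falls; 0% = enzyme with DMSO and 100% = wells lacking LYPLA1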
ZTA DNA inh: ZTA (EBV) inhibition in EBNA-1 counter-screen | ZTA-DNA binding, fluorescence polarization | inhibition, % at 11 µM | 320,000 tested, 0.15% active; in the data active = inhibition above about 33%
Active calls of the source: *; . = not tested or not shown. Not all compounds are listed. The share of hits here may be higher or lower than overall.

nr	compound	PREPL inh	LYPLA2 counter	PAFAH1B3 inh	PAFAH2 inh
1	Cc1ccc(C2C3=C(CC(C)(C)CC3=O)NC3=C2C(=O)CC(C)(C)C3)o1	-0.6	3.5	3.0	-7.8
2	CC/C(=N\NC(=O)c1ccc(-c2ccccc2)cc1)C12CC3CC(CC(C3)C1)C2	-5.8	-6.1	0.4	-6.5
3	O=C(COC(=O)c1cccc(Cl)c1)Nc1cccc(S(=O)(=O)NC2=NCCC2)c1	30.2	.	-1.2	10.6
4	CC(C)NC(=O)N(O)C1N(Cc2ccc3c(c2)OCO3)C(=S)SC1(C)C (stereo not given)	7.3	-1.2	5.8	1.5
5	O=C(NN1CC(C(=O)OCc2ccccc2F)CC1=O)c1ccccc1 (stereo not given)	12.8	4.4	11.3	3.4
6	CC[C@H](C)[C@H](NC(=O)OCc1ccccc1)C(=O)Nc1ccc(NC(C)=O)cc1	-9.8	1.2	13.2	4.5
7	CSCC[C@H](NC(=O)OC(C)(C)C)C(=O)N1CCC(C(=O)N[C@@H](C)C(=O)O)CC1	1.1	6.1	-0.9	-1.9
8	CCC(C)C(NC(N)=O)C(=O)Nc1ccc(S(=O)(=O)Nc2ccc(OC)cc2)cc1 (stereo not given)	-6.0	-1.5	1.1	-5.2
9	CC(C)=CC(=O)Nc1nnc(-c2cccnc2)s1	13.2	3.8	3.5	3.2
10	CN(CC(=O)Nc1cccc(F)c1)C(=O)c1cccnc1Sc1ccccc1Cl	4.1	6.3	6.3	-9.9

nr	EBNA-1 inhibitor	LYPLA1 counter	ZTA DNA inh
1	3.8	2.4	-2.8
2	-8.2	1.4	11.2
3	.	.	.
4	3.2	-1.1	11.0
5	-0.6	-0.7	-9.8
6	-15.4	3.8	-3.6
7	4.7	1.6	-12.1
8	-3.9	-2.4	1.6
9	-13.5	-1.9	-13.2
10	-9.9	0.7	8.2

Part of the list above, as tab-separated lines.
item	mol	PREPL inh	LYPLA2 counter	PAFAH1B3 inh	PAFAH2 inh	EBNA-1 inhibitor	LYPLA1 counter	ZTA DNA inh
1	Cc1ccc(C2C3=C(CC(C)(C)CC3=O)NC3=C2C(=O)CC(C)(C)C3)o1	-0.6	3.5	3.0	-7.8	3.8	2.4	-2.8
2	CC/C(=N\NC(=O)c1ccc(-c2ccccc2)cc1)C12CC3CC(CC(C3)C1)C2	-5.8	-6.1	0.4	-6.5	-8.2	1.4	11.2
3	O=C(COC(=O)c1cccc(Cl)c1)Nc1cccc(S(=O)(=O)NC2=NCCC2)c1	30.2	.	-1.2	10.6	.	.	.
4	CC(C)NC(=O)N(O)C1N(Cc2ccc3c(c2)OCO3)C(=S)SC1(C)C (stereo not given)	7.3	-1.2	5.8	1.5	3.2	-1.1	11.0
5	O=C(NN1CC(C(=O)OCc2ccccc2F)CC1=O)c1ccccc1 (stereo not given)	12.8	4.4	11.3	3.4	-0.6	-0.7	-9.8
6	CC[C@H](C)[C@H](NC(=O)OCc1ccccc1)C(=O)Nc1ccc(NC(C)=O)cc1	-9.8	1.2	13.2	4.5	-15.4	3.8	-3.6
7	CSCC[C@H](NC(=O)OC(C)(C)C)C(=O)N1CCC(C(=O)N[C@@H](C)C(=O)O)CC1	1.1	6.1	-0.9	-1.9	4.7	1.6	-12.1
8	CCC(C)C(NC(N)=O)C(=O)Nc1ccc(S(=O)(=O)Nc2ccc(OC)cc2)cc1 (stereo not given)	-6.0	-1.5	1.1	-5.2	-3.9	-2.4	1.6
9	CC(C)=CC(=O)Nc1nnc(-c2cccnc2)s1	13.2	3.8	3.5	3.2	-13.5	-1.9	-13.2
10	CN(CC(=O)Nc1cccc(F)c1)C(=O)c1cccnc1Sc1ccccc1Cl	4.1	6.3	6.3	-9.9	-9.9	0.7	8.2

New compounds follow:
nr	compound	PREPL inh	LYPLA2 counter	PAFAH1B3 inh	PAFAH2 inh
11	CC[C@H](C)[C@H](NC(N)=O)C(=O)NCCc1ccc(OC)cc1	3.0	2.1	4.2	-0.6
12	COc1ccc(C(C#N)Nc2ccc(C)cc2)cc1 (stereo not given)	9.7	29.2*	2.5	-4.0
13	Cc1ccc(C)c(OCC(=O)Nc2cccc(S(=O)(=O)NC3=NCCCCC3)c2)c1	31.6	8.4	-4.8	-3.2
14	COC(=O)c1nc(NC(=O)C(C)C)n[nH]1	14.0	3.2	6.3	10.4
15	CSCC[C@H](NC(=O)OC(C)(C)C)C(=O)N1CCC(C(=O)N[C@H](C(=O)O)C(C)C)CC1	12.7	-11.1	-1.2	9.4
16	O=C1OC(c2ccc(F)cc2)=N/C1=C\c1ccc(Br)o1	8.3	3.7	1.0	7.0
17	CCOc1ccc(C=NC23CN4CN(CN(C4)C2)C3)cc1	-3.1	9.7	0.8	1.1
18	COc1ccc(/C=C/C(=O)NC(=S)N2CCSCC2)cc1	-1.0	-3.6	2.4	-1.5
19	COc1ccc(NS(=O)(=O)c2cccc(C(=O)NNC(=O)c3ccccc3OC)c2)cc1	-4.0	2.0	1.9	2.6
20	COc1ccc(NS(=O)(=O)c2cccc(C(=O)N/N=C(\C)c3ccncc3)c2)cc1	-2.5	-2.0	-8.6	-9.8

nr	EBNA-1 inhibitor	LYPLA1 counter	ZTA DNA inh
11	-6.1	1.1	3.6
12	-4.5	1.5	-21.5
13	2.8	2.5	-12.6
14	10.0	0.9	2.1
15	-1.3	-2.7	-2.1
16	-7.1	3.3	1.1
17	-12.0	-2.0	-6.7
18	-1.8	-3.7	17.5
19	2.0	1.7	-9.2
20	-7.5	-2.9	-7.1

Next section:
nr	compound	PREPL inh	LYPLA2 counter	PAFAH1B3 inh	PAFAH2 inh
21	CN(CC(=O)Nc1cccc(F)c1)C(=O)c1ccccc1Sc1ccccc1C#N	9.3	2.0	-6.2	3.3
22	CC(OC(=O)c1cc(=O)[nH]c2ccccc12)c1ccccc1 (stereo not given)	-0.7	11.0	3.2	-0.5
23	COC(=O)c1nc(NC(=O)C(C)(C)C)n[nH]1	11.2	1.9	-4.1	3.9
24	C=CCN(C(=O)Nc1ccc2c(c1)nc(C)n2C)c1ccccc1	2.0	3.1	5.5	12.2
25	COC(=O)[C@H](C(C)C)N(Cc1ccccc1)S(=O)(=O)CCN1CCN(c2ccccc2)CC1	.	.	5.3	3.0
26	O=C(Nc1nnc(-c2cccnc2)s1)c1cccs1	-1.8	2.8	7.5	-8.4
27	CCCCC(=O)Nc1ccc2c3c(cccc13)CC2	10.9	-1.4	7.0	2.3
28	Cc1ccccc1OCc1nc(-c2ccc(NC(=O)c3ccc4c(c3)OCO4)cc2)no1	-3.8	-4.5	0.5	-12.6
29	Cn1c(-c2ccc3c(c2)OCO3)cnc1NCc1cccc(Cl)c1	27.4	5.6	2.8	12.9
30	CCCc1cc(=O)n2[nH]c(SCc3ccc(Cl)cc3)nc2n1	9.5	2.5	3.8	26.8

nr	EBNA-1 inhibitor	LYPLA1 counter	ZTA DNA inh
21	.	-2.8	-2.9
22	15.9	-1.9	12.9
23	3.6	-0.8	3.6
24	8.7	-0.3	10.9
25	.	.	.
26	-5.5	3.0	-0.5
27	-13.9	1.0	-2.3
28	28.8*	-3.9	4.4
29	-0.6	3.6	3.0
30	0.5	0.9	5.5
